# VCAM-1 rise: enhancers of VCAM-1 display on endothelial cells, cell-based, plate reader, pooled HUVEC, TNFa stimulus (AID 455). HUVEC TNFa-induced VCAM-1 immunofluorescence, plate reader; numbers were filed only for top-ranked candidate wells. augmentation, % at 5 µM. 10,000 compounds, 0.2% hits;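 active means a compound raising TNF-alpha-driven VCAM-1 surface staining, with its hit status upheld on visual or statistical review; inactive means the rest, including hits rejected on review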;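 further: 0% = TNFa with vehicle and 100% = strongest image-checked hit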
# 26S disassembly: inhibitors of ATP-driven 26S proteasome dissociation, primary screen, biochemical, bead-based flow cytometry, GFP-tagged proteasome; 24,000 compounds, 0.2% hits; AID 751, 2007; inhibition of disassembly, % (concentration not given with the values); anti-FLAG beads, GFP-proteasome disassembly;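 active means above 40%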;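 further: plate controls were ATP control with full disassembly for no effect and ATP-gamma-S intact proteasomes for full effect; higher percent means more bead fluorescence retained so stronger block of disassembly; stock transfer was 100 nL into about 10 µL; wells with too few beads may also be inconclusive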
# Active calls of the source: *; i = inactive; x = no result given. Only part of the results is shown; rates above refer to the full screens.
mol	VCAM-1 rise	26S disassembly
COc1ccc(-c2cn3c(C)c(C(=O)NC(C)C)sc3n2)cc1	x	0.6
O=C(c1sc2ccccc2c1Cl)N(Cc1cccs1)C1CCS(=O)(=O)C1 (configuration not stated)	i	0.9
CN1CCN2c3ccccc3Cc3ccccc3C2C1 (configuration not stated)	i	0.2
Brc1ccc(-c2nnc3sc(CN4CCC5(CC4)OCCO5)cn23)cc1	i	-0.6
CC(C)OCCCNC(=O)Cn1ncc2c(=O)oc3ccccc3c21	x	-2.2
O=S(=O)(c1cccc2nsnc12)N1CCc2ccccc21	x	2.5
CCn1c2ccccc2c2nnc(SCC(=O)NC(C(=O)OC)C(C)C)nc21 (configuration not stated)	x	2.3
CCCCS(=O)(=O)NC1=NCN(C2CCN(Cc3ccccc3)CC2)CN1	i	1.5
O=C(NCCC1=CCCCC1)C1CCCN(c2nc3ccccc3o2)C1 (configuration not stated)	x	2.1
O=S(=O)(Cc1ccccc1Cl)N1CCCCC1	x	-1.1

# (more compounds)
mol	VCAM-1 rise	26S disassembly
Cc1ccc(NC(=O)C2CCCN(S(=O)(=O)c3c(C)noc3C)C2)c(C)c1 (configuration not stated)	x	-2.5
O=C1CCC(C(=O)NC2(C(=O)NC3CCCCC3)CCCCC2)N1 (configuration not stated)	x	-0.8
CCN(CC)S(=O)(=O)N1CCC(C(=O)NCc2ccc(C)cc2)CC1	x	-0.4
Cc1nc2nc(C)c(CCC(=O)NCc3ccc4c(c3)OCO4)c(C)n2n1	x	-0.8
CCCN(CCC)S(=O)(=O)c1ccc(C(=O)Nc2nnc(-c3cccc(OC)c3)o2)cc1	i	-0.6
Cc1ccc(S(=O)(=O)NCCC(=O)NC2CCCC2)cc1	x	-0.9
CCOc1ccc(N(CC(=O)NCc2ccc(F)cc2)S(=O)(=O)c2c(C)noc2C)cc1	x	1.4
CCN1CCN(C(=O)CSCc2nc(-c3ccc(OC)c(OC)c3)oc2C)CC1	x	0.3
CCN1CCN(c2nc(C)nc3c2sc(=S)n3C)CC1	i	1.3
CSc1cccc(NC(=O)CN(C)S(=O)(=O)c2ccccc2)c1	i	1.1

# Next part.
mol	VCAM-1 rise	26S disassembly
COc1ccc(Cc2nnc(NC(=O)c3c(-c4ccccc4)noc3C)s2)cc1OC	x	-0.2
CCn1c(=O)cc(OCC(=O)O)c2ccccc21	x	0.3
Cc1cc(NC(=O)Cc2c(F)cccc2Cl)no1	i	3.4
O=C(CN1CCN(c2ccccn2)CC1)Nc1ccc(Oc2ccccc2)cc1	x	-0.7
CC1(C)N=C(c2ccc(Cl)cc2)C(=O)N1	x	-2.4
COc1cc(S(=O)(=O)N2CCN(c3ccccc3F)CC2)ccc1Cl	x	-0.6
CC(C)n1c(NCc2c[nH]c3ccccc23)nc2ccccc21	i	0.3
COc1cc(-c2nc(S(=O)(=O)c3ccccc3)c(N3CCOCC3)o2)cc(OC)c1OC	i	2.8
CCCN1C2CCCC1CC(NC(=O)c1ccccc1F)C2 (configuration not stated)	i	2.2
Cc1cc(S(=O)(=O)NCc2ccc(S(N)(=O)=O)cc2)c(C)s1	x	-0.5

# (list continues)
mol	VCAM-1 rise	26S disassembly
COC(=O)c1ccc2c(=O)n(NC(C)=O)c(=S)[nH]c2c1	i	-0.2
CCOC(=O)c1oc2ccc(S(=O)(=O)N3CCC(C)CC3)cc2c1C	x	1.6
COc1ccc(NC(=O)CSc2nnc(Cc3cccn3C)n2-c2ccc(OC)cc2)cc1	x	0.8
CCc1ccccc1-n1c(SCC(=O)Nc2ccc3c(c2)OCCO3)nc2[nH]ncc2c1=O	x	0.7
COCCNC(=O)C1CCN(S(=O)(=O)N2CCC3(CC2)OCCO3)CC1	x	-0.1
CCCC(=O)N(c1ccc(OCC)cc1)C1C=CS(=O)(=O)C1 (configuration not stated)	x	-0.7
CCc1nnc(NC(=O)CSc2nccn2-c2ccccc2)s1	x	0.3
COC(=O)c1sc(S(=O)(=O)NCc2cccs2)c(C(=O)OC)c1C	i	0.6
CCN(C)c1ccc(/C=N\n2nnnc2N)cc1	x	4.4
CCCCn1c(=NC(=O)c2ccco2)c(C(=O)OCC)cc2c(=O)n3ccccc3nc21	x	-0.6

# Next part
mol	VCAM-1 rise	26S disassembly
CCCN1C=CC(=C2C(=O)c3ccccc3C2=O)C=C1	i	-2.8
O=C(CSc1nc2ccccc2o1)N1CCN(c2ccc(Cl)cc2)CC1	i	-1.0
CCOC(=O)Cn1nc(-c2ccc(C)cc2)ccc1=O	i	1.0
Cn1cc(S(=O)(=O)CC(=O)Nc2ccc3c(c2)OCO3)c2ccccc21	x	-1.0
COc1cccc(N2C(=O)C(CC(=O)Nc3ccccc3)N(C3CCCCC3)C2=O)c1 (configuration not stated)	x	1.2
O=C(CCCn1c(=S)[nH]c2ccccc2c1=O)NC1CCCC1	x	-0.8
Cc1ccccc1Cn1nc(C)c(NC(=O)c2noc3c2CCCC3)c1C	i	0.2
CCn1c(SCC(=O)Nc2ccc3c(c2)OCCO3)nc2c(c1=O)SC(C)C2 (configuration not stated)	x	3.0
CC(C)CNS(=O)(=O)c1ccc(CCC(=O)NCc2ccco2)cc1	i	-1.6
Cc1ccc(NC(=O)CSC2=C(C#N)C(c3ccc4c(c3)OCO4)CC(=O)N2)cc1C (configuration not stated)	i	-0.7

# Continuation:
mol	VCAM-1 rise	26S disassembly
Cc1ccc(N2CCN(C(=O)c3ccccc3)CC2)c(C)c1	i	3.8
CCc1ccc(-c2nc(CN3CCC(C(=O)N4CCN(c5ccccc5)CC4)CC3)c(C)o2)cc1	x	3.8
CCCOCCOC(=O)c1[nH]c2c(c1C)C(=O)CC(c1cc(OC)ccc1OC)C2 (configuration not stated)	x	1.2
COc1cccc(C2=NOC(C(=O)N3CCN(Cc4ccccc4)CC3)C2)c1OC (configuration not stated)	x	-1.1
COc1ccc(C(=O)N[C@H]2COC(C)(C)O[C@H]2c2ccccc2)cc1	x	2.1
COc1cccc(-c2nc(CS(=O)(=O)CC(=O)Nc3c(C)cccc3C)c(C)o2)c1	x	0.3
CC(=O)[C@H]1[C@H](C#N)C[C@H]2[C@@H]3CC=C4C[C@@H](O)CC[C@]4(C)[C@H]3CC[C@@]21C	i	-0.9
O=c1c2c3nc4ccccc4nc3n(CC3CCCO3)c2ncn1CCc1ccccc1 (configuration not stated)	i	1.7
CC(C)(C)NC(=O)C(c1ccco1)N(C(=O)Cn1nnc(-c2ccc(F)cc2)n1)c1ccccc1F (configuration not stated)	i	-0.3
CC(=O)OC1(C(F)(F)F)Oc2ccccc2NC1=O (configuration not stated)	x	-0.9

# Following part
mol	VCAM-1 rise	26S disassembly
CC(=O)Nc1ccc(S(=O)(=O)N2CCN(Cc3ccncc3)CC2)cc1	i	-1.6
Cc1nc2nc[nH]n2c(=O)c1NC(=O)CCc1ccccc1	x	0.1
O=C(Cn1nnc2ccccc2c1=O)NC1CCCc2ccccc21 (configuration not stated)	i	-0.8
Oc1ccc(-c2nc3ncccn3c2Nc2ccc3c(c2)OCCO3)cc1	x	0.4
Cc1cccc(N(Cc2nnc3n2CCCCC3)C(=O)Nc2ccccc2)c1	x	-0.8
CCOC(=O)c1cc(C)n(-c2c(C)n(C)n(-c3ccccc3)c2=O)c1C	x	0.1
CCC(=O)N1CCN(CCN=CC2=C(O)CC(C)(C)CC2=O)CC1	23	-1.3
O=C(OCC(=O)N1CCCC1)c1ccccc1OCc1ccccc1	i	0.7
CCC(=O)N1CCc2cc(Br)cc(S(=O)(=O)CCC(=O)NCC3CCCO3)c21 (configuration not stated)	i	0.2
COCCCNC(=O)CCc1nc2cccnc2n1Cc1ccc(OC)cc1	i	-0.6

# Other records follow:
mol	VCAM-1 rise	26S disassembly
CCOc1ccccc1-c1nc(-c2ccc(NC(=O)Cc3ccccc3OC)cc2)no1	i	-2.7
CCOc1ccccc1NC(=O)C1CCCN(S(=O)(=O)c2cccc3nsnc23)C1 (configuration not stated)	x	4.5
CCc1c(C)nc2cc(-c3ccc(OC)cc3)[nH]n2c1=O	x	1.2
CCCC1Cc2c(sc3ncnc(N)c23)CO1 (configuration not stated)	i	-1.4
COc1ccc(C(=O)NCCn2ccc3ccccc32)c(OC)c1	i	1.6
COc1ccc(C2C(C(=O)NCc3ccco3)CCC(=O)N2c2ccc(OC)cc2)cc1 (configuration not stated)	x	-0.3
O=S(=O)(NCc1cn2ccccc2n1)c1cc(F)ccc1F	i	-1.7
COC(=O)c1c(-c2cccs2)csc1NC(=O)CN1CCOCC1	i	0.9
COc1ccc(N2CCN(CCCNC(=O)CN3CCN(Cc4ccccc4C)C3=O)CC2)cc1	x	1.1
CCN(C(=O)c1cc(Cl)ccc1OC)c1ccccc1	i	0.8

# Next entries follow.
mol	VCAM-1 rise	26S disassembly
CCOc1ccc(N(CC(=O)Nc2cccc(OC)c2)S(=O)(=O)c2c(C)noc2C)cc1	i	-0.9
COc1ccccc1-c1nnc(SCC(=O)N2CC(C)CC(C)C2)o1 (configuration not stated)	i	-0.5
Nc1cc(OC(=O)c2cccs2)nn1S(=O)(=O)c1ccccc1	x	-0.2
COc1ccc(NC(=O)CSc2nc3c(c(=O)n2-c2ccccc2OC)SCC3)cc1	i	1.4
O=C(CSc1nc2ccccc2[nH]1)N1CCCCC1	i	0.4
Cc1ccc(N(Cc2ccco2)C(=O)c2cccc(S(=O)(=O)N(C)C)c2)cc1	i	-1.8
O=C(CSc1ncnc2c1oc1ccccc12)Nc1ccccc1C(F)(F)F	i	-0.7
CC(=O)C1=C(C)N=c2s/c(=C/c3ccc4c(c3)OCO4)c(=O)n2C1c1ccc(N(C)C)cc1 (configuration not stated)	x	16
Cc1ccc(C2CC(c3ccccc3)n3ncnc3N2)cc1 (configuration not stated)	x	0.6
Cc1cccc(-n2cnc3cc(C(=O)N4CCCCC4)ccc32)c1	x	-0.2

# The results go on.
mol	VCAM-1 rise	26S disassembly
COc1ccc(NC(=O)Nc2nnc(N3CCC(C)CC3)s2)cc1OC	x	0.8
COc1cccc(/C=N/n2c(-c3ccco3)nc3ccccc3c2=O)c1	i	0.6
CN(CC(=O)Nc1cccnc1)S(=O)(=O)c1cc(Cl)ccc1Cl	i	-3.4
Cc1ccc(S(=O)(=O)NC(CN2CCOCC2)=NCCNS(=O)(=O)c2ccccc2)cc1	x	-1.7
O=C1c2ccccc2C(=O)N1Cc1nc2ccccc2c(=O)n1CCN1CCOCC1	i	1.9
COC(=O)C1=C(C)NC2=C(C(=O)CCC2)C1c1coc2ccccc2c1=O (configuration not stated)	i	0.6
Cc1cc(C)nc(SC2=CS(=O)(=O)c3ccccc32)n1	i	-0.4
COc1ccc(NS(=O)(=O)c2ccc3c(c2)oc(=O)n3C)c(OC)c1	x	-1.2
COc1cccc(C(CC(=O)NCC2CCCO2)NS(=O)(=O)c2ccc(C)cc2)c1OC (configuration not stated)	x	0.1
CC1CCCC(C)N1CCNC(=O)Cn1nc(-c2ccccc2)ccc1=O (configuration not stated)	x	0.1

# Reformatted with values ahead of the structure: part of the list above
VCAM-1 rise,26S disassembly,smiles
i,0.6,COC(=O)C1=C(C)NC2=C(C(=O)CCC2)C1c1coc2ccccc2c1=O (configuration not stated)
i,1.9,O=C1c2ccccc2C(=O)N1Cc1nc2ccccc2c(=O)n1CCN1CCOCC1

# Additional results
mol	VCAM-1 rise	26S disassembly
CCOC(=O)c1c(-c2ccccc2)c(C(C)=O)c(=O)n(C)c1C	x	0.5
O=C(CCCCCNc1nc(=S)[nH]c2ccccc12)N1CCN(c2ccccn2)CC1	x	0.7
COc1cccc(OC)c1OCCNCCO	i	0.5
CCOC(=O)N1CCN(c2c(NCCCOC(C)C)c(=O)c2=O)CC1	i	-2.3
COc1ccc(C)cc1-n1nnnc1SCC(=O)NC(=O)NCc1ccco1	i	2.6
COc1ccccc1N(CN1CCCC1=O)C(=O)COc1ccccc1	x	-1.7
COCCNC(=O)CN1CCN(C(c2ccccc2)c2ccccc2)CC1	i	-1.5
CCCc1cn(S(=O)(=O)c2ccc(OC)cc2OC)nc1N	i	0.0
O=C(NCc1ccc2c(c1)OCO2)c1ccc2c(=O)n(C3CCCC3)c(=O)[nH]c2c1	x	0.4
Cc1nn(-c2ccccc2)c(OC(=O)c2cccs2)c1S(=O)(=O)c1ccccc1	x	0.4

# (next part)
mol	VCAM-1 rise	26S disassembly
Cc1oc2c(CN3CCOCC3)c(O)ccc2c(=O)c1-c1ccc(Br)cc1	i	2.3
O=C(CN1CCSCC1)N1CCc2[nH]c3ccc(Br)cc3c2C1	i	5.4
COc1ccc(-c2nnc(SCC(=O)NC3CCCCC3)o2)cc1OC	x	1.0
COCCOC(=O)C1=C(C)N=C2SCCC(=O)N2C1c1cccc(Br)c1 (configuration not stated)	x	3.2
O=C(NCC(=O)N1CCC(N2CCCCC2)CC1)C1CCCCC1	i	-0.9
O=C(c1cccc2c1C(=O)N(Cc1cccnc1)C2)N1CCN(c2ccccc2)CC1	i	2.2
COC(=O)Nc1sccc1C(=O)Nc1sccc1C(=O)OC	i	5.6
CC(C)(CO)NC(=O)CCCOc1ccc(Cl)cc1Cl	i	-0.6
N#Cc1c(SCC(N)=O)nsc1SCc1ccccc1Cl	x	1.6
COc1ccccc1NC(=O)CN(c1ccc(C)cc1)S(=O)(=O)c1c(C)n[nH]c1C	x	0.1

# Other results:
mol	VCAM-1 rise	26S disassembly
O=C(N1CCOCC1)C(F)(F)C(=O)N1CCOCC1	x	0.7
CCOC(=O)CN1CC23C=CC(O2)C(C(=O)Nc2ccc4c(c2)OCO4)C3C1=O (configuration not stated)	x	0.7
Cc1noc(C)c1S(=O)(=O)Nc1ccc(C(=O)NC2CCCCC2)cc1	x	2.8
O=C(c1ccco1)N1c2ccccc2Sc2ccccc21	x	-0.8
Cc1ccc(S(=O)(=O)NC(CC(=O)NCC2CCCO2)c2ccco2)cc1 (configuration not stated)	x	0.5

# Source: PubChem
